# Assay outcomes (PubChem BioAssay)
# PrP UTR inh = inhibition of PrP 5' UTR reporter expression; cell-based PrP 5' UTR mRNA reporter, plate reader; inhibition, % (test concentration not listed); 340,000 tested, 0.35% active;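 active = every replicate at 50% or more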;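 note: 0 = median of the neutral control wells; tested in H4 reporter cells; numbers are from one replicate; inactives centre near -14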
# BJeLR lethal = MLPCN primary cell-based screen for lethality selective to Ras in HRASV12 cells. BJeLR (HRASV12) viability, CellTiter-Glo ATP luminescence, 48 h; reference of the scale not given here. inhibition, % (no concentration beside the values). 300,000 tested, 0.17% active. AID 1554, 2009;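 active = replicate mean above 50%; inconclusive = above 50% but judged a plate artefact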;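 note: 50 nL library stock added to about 25 µL; numbers are from one replicate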
# ugtP null kill = growth inhibition of ugtP-null S. aureus, primary screen, RN4220 ugtP deletion, OD600. 16 h; some inactives read as strong as hits. 330,000 tested, 0.54% active. AID 1259309, 2017. growth inhibition, % (concentration not given with the values);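 active = z-score under -3 and OD600 up to 0.15 on both plates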;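 note: plate controls were untreated wells for no effect and antibiotic for full effect; wells of about 80 µL received 100 nL stock; the first replicate is given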
# Autofluor counter = counter-screen for toxin protease inhibitors: compound fluorescence | compound autofluorescence counterscreen, microsphere flow cytometry; active compounds read high | fluorescence intensity (concentration not given with the values) | 360,000 tested, 3.1% active;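 active = at least 3 SD above the mean of all compounds, about 16000 in these data; inconclusive = too few beads counted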;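 note: 100 nL of 1 mM stock went into each well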
# Mtb hypoxia inh = PubChem AID 1159583; M. tuberculosis hypoxia-regulated fluorescent reporter, fluorescence; fluorescence inhibition, % (no concentration beside the values); 300,000 tested, 0.1% active;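 active = 35 to 45% if threefold the growth effect, above 45% if 1.5-fold the growth effect; inactive = the rest, general growth blockers included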;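 note: wells of about 50 µL received 100 nL stock; 0% = vehicle wells and 100% = reference inhibitor wells; whole bacteria with a GFP reporter of the hypoxia response; strong numbers were not always called active; many hits fall short of the cut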
# RN4220 kill = growth inhibition of S. aureus RN4220, primary screen, OD600; 330,000 tested, 0.33% active; inhibition, % (test concentration not listed); 16 h;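 active = z-score of -3 or lower and OD600 up to 0.18 on both plates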;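 note: plate controls were untreated cells for no effect and reference antibiotic for full effect; stock transfer was 100 nL into about 80 µL; one replicate is shown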
# Mtb hypoxia inh growth = also measured in Mtb hypoxia inh; calls as there; growth inhibition, %; measured here: M. tuberculosis growth (absorbance);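 0% = vehicle and 100% = reference antibiotic; read after six days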
# The depositor's hits bear a star; u = inconclusive; x = not tested or not shown; & = joins results of further samples.
SMILES,PrP UTR inh,BJeLR lethal,ugtP null kill,Autofluor counter,Mtb hypoxia inh,Mtb hypoxia inh growth,RN4220 kill
CCC(=O)NCCCCNC(=O)CC,-3.6,-7.0,9.7,3220,6.6,7.3,1.7
O=C1CSC(=Nc2ccc(Cl)cc2)N1Cc1ccco1,-2.8,-1.1,-1.5,4441,13.1,16.4,5.1
Cn1c(=O)c2c(O)c(C=NCc3ccccc3)c(=O)n(C)c2n(C)c1=O,x,0.3,10.7,6378,0.2,-4.5,1.5
CCCNC(=O)CCn1c(=S)oc2ccccc21,-7.4,4.6,11.4,4943,13.7,8.9,5.3
CCC(C)C(NC(=O)C(=Cc1ccccc1)NC(=O)c1ccc(OC)cc1)C(=O)O (stereo unspecified),x,x,1.0,x,5.1,8.6,1.9
Cc1ccccc1C(=O)NNC(=O)CCc1ccccc1,-3.7,5.3,11.3,5629,12.4,3.0,9.8
COCCNC(=O)c1ccc(C)c(NC(=O)C2=C(C)OCCS2)c1,4.8,1.5,17.3,3673,8.1,13.7,1.5
COc1ccccc1C(CNC(=O)CN1C(=O)NC(C)(c2ccc3ccccc3c2)C1=O)N1CCCC1 (stereo unspecified),-14.8,x,5.6,3742,30.5*,75.7*,-3.3
N#C/C(=C\C=C\c1ccccc1)C(=O)NCc1cccnc1,-10.8,-1.6,11.5,4325,1.4,19.0,4.9
CCC1Nc2ncnc(N3CCCCC3)c2N(Cc2ccc(Cl)cc2)C1=O (stereo unspecified),-9.3,x,-16.2,3911&5616,-0.4,8.5,5.2
COc1ccc(-n2c3c(cc(C(=O)NCc4ccco4)c2=O)C(=O)CC(C)(C)C3)cc1,-13.9,7.2,3.2,4568,-4.1,-11.4,4.7
O=C(NCc1ccco1)c1ccc(Cl)cc1[N+](=O)[O-],-22.9,-6.9,8.0,3804,9.3,0.2,3.8
COc1cc(S(=O)(=O)N2CCC(O)(c3cccc(C(F)(F)F)c3)CC2)ccc1-n1cnnn1,-14.4,3.6,-1.0,10185,3.0,9.3,4.3
COc1cccc(-c2nn(-c3ccccc3)cc2C(=O)n2nnc3ccccc32)c1,-21.0,-0.6,4.5,8893,5.1,3.2,3.1
CC1(C)CC(=O)C2=C(C1)OC(N=CN1CCCC1)=C(C#N)C2c1ccccc1 (stereo unspecified),x,x,3.3,x,7.3,-1.5,0.7
COc1ccc(N=C2S/C(=C\c3ccc(OC(C)C(=O)O)c(OC)c3)C(=O)N2CCc2c[nH]c3ccccc23)cc1 (stereo unspecified),-17.0,-1.2,41.5,2588,-0.3,6.9,32.8
Cc1cc(C)c2c(c1)C1C=CCC1C(c1ccc(S(=O)(=O)N3CCOCC3)cc1)N2 (stereo unspecified),-17.7,2.5,1.1,13279,0.6,0.5,2.9
CN(CC1CCOCC1)C(=O)CC1C(=O)NCCN1Cc1ccc(F)c(F)c1 (stereo unspecified),-12.3,4.6,2.5,5551,-5.2,-8.3,0.6
Cc1c(C(=O)NN)nn(-c2ccc(F)cc2)c(=O)c1C#N,-21.3,-4.2,5.4,3678,5.3,9.9,1.4
O=C(c1cc([N+](=O)[O-])ccc1N1CCOCC1)N1CCCCC1,-47.1,1.8,0.8,2505,-9.7,-2.9,-0.6
CCOC(=O)C1CCN(Cc2coc3c(Cl)cc(Cl)cc3c2=O)CC1,-5.2,-7.9,1.9,9628,3.1,-6.2,0.8
COc1ccc(CNC(=O)CSc2nc3ccccc3n2C(C)=O)cc1,-29.3,-1.8,6.4,3396,2.6,-0.5,4.7
C/C(=N\NC(=O)c1nnn(-c2nonc2N)c1CN(C)c1ccccc1)c1ccccn1,12.1,16.2,x,5367,x,x,x
Cc1cc(=O)oc2cc(Nc3ccccc3)ccc12,-3.1,-15.4,-12.5,11212,9.7,-2.4,5.6
CC(O)CNc1nc2c(c(=O)n(Cc3ccc(Cl)cc3)c(=O)n2C)n1C (stereo unspecified),-9.0,-11.3,2.3,4269,3.6,-0.5,1.6
O=C1CCCC2=C1C(c1cccs1)n1nc(SCc3ccc(C(=O)O)cc3)nc1N2 (stereo unspecified),-89.2,-1.1,-0.6,4824,13.3,1.5,0.4
COc1ccc(N(CC(=O)Nc2ccc(C)cn2)S(=O)(=O)c2c(C)noc2C)cc1,-20.1,3.5,4.4,17199*,11.5,5.6,4.6
O=C(c1cccc(S(=O)(=O)Nc2ccccc2Cl)c1)N1CCN(C(=O)c2ccco2)CC1,-19.7,1.2,6.3,4543,0.7,11.3,16.6
COc1ccc(C(C)=O)cc1CSc1nnc(C)s1,-52.6,1.2,3.1,5108,16.6,6.0,2.7
Cc1ccc(Nc2nc(Cl)nc3ncn(C)c23)c(C)c1,-14.4,x,-4.6,2852,-7.5,2.0,3.3
CC(=O)Nc1ccc(NC(=O)CSc2nnc(CC(C)O)n2-c2ccccc2)cc1 (stereo unspecified),-23.5,0.7,3.5,3363,21.7,8.5,3.5
CCc1ccc2nc(NC(=O)c3ccc(N4C(=O)CCC4=O)cc3)sc2c1,-37.0,10.4,-2.3,4737,11.7,10.2,3.1
COc1ccc(-c2ccc(=O)n(CC(=O)NC3CCc4ccccc43)n2)cc1OC (stereo unspecified),38.9,2.9,-5.6,5427,9.0,4.6,4.7
CCOc1cc(C=NNC(=O)CCc2n[nH]c(=O)[nH]c2=O)ccc1O,x,x,-6.2,x,-1.8,1.6,-0.7
CCc1cccc(CC)c1NC(=O)CCCSc1nc2ccccc2s1,-6.9,-4.0,3.4,2113,13.2,5.8,6.2
CC1CCC(NC(=O)c2ccc3c(c2)OCO3)CC1 (stereo unspecified),-37.1,-0.6,1.9,6097,x,x,1.0
COC(CNC(=O)C1CCCN(S(=O)(=O)c2ccc3c(c2)oc(=O)n3C)C1)OC (stereo unspecified),1.4,11.3,1.7,6003,13.5,4.8,2.6
Cc1cc(SCC(=O)c2ccccc2)nc(SCC(=O)c2ccccc2)n1,-10.4,-4.8,1.9,4158,13.1,12.9,5.8
COC(=O)[C@H](C)NC(=O)NC1CCCc2ccccc21 (stereo partly specified),-19.0,-3.0,-5.1,10280,-6.5,-3.4,-1.3
CCCOC(=O)c1ccc(NC(=O)c2cccc(S(=O)(=O)N3CCN(C(C)=O)CC3)c2)cc1,-6.2,1.4,5.5,4155,10.4,7.2,4.0
CC1CN(C(=O)c2ccccc2C(=O)c2ncc[nH]2)CC(C)O1 (stereo unspecified),-25.1,2.2,0.2,9457,6.2,2.4,6.6
O=C(NCC(=O)N1CCN(S(=O)(=O)c2c(F)cccc2F)CC1)c1ccccc1F,-13.7,x,2.9,u,-6.2,-9.8,-0.2
Nc1nc2n(n1)C(c1ccco1)CC(c1ccc(Cl)cc1)N2 (stereo unspecified),-2.6,0.7,14.5,2709,x,x,3.1
O=C(NC1CCCCC1)N1CCN(C2CCCCC2)CC1,-1.2,-8.4,-0.3,23605*,-8.2,-6.5,-5.4
CN(c1ccccc1C(=O)Nc1ccc2c(c1)OCO2)S(C)(=O)=O,-10.2,14.9,-12.8,9763,-9.1,5.1,-4.4
COc1cccc(NC(=O)CCSc2ccc(C)cc2)c1,-21.3,-0.8,6.7,2019,5.2,7.0,0.3
Cn1nc(C(F)(F)F)c(/C=N/OC(=O)c2ccccc2Cl)c1SCc1ccc(Cl)cc1,-19.8,-2.4,x,23366*,x,x,x
CCOC(=O)c1[nH]c(C)c(C(O)=C2C(=O)C(=O)N(CCN(C)C)C2c2ccncc2)c1C (stereo unspecified),x,x,-4.2,x,1.2,-9.0,3.7
CSc1nnc(CCCCCCCCc2nnc(SC)o2)o1,-1.5,-3.7,2.2,6590,17.2,18.7,4.5
Cc1nonc1OCCNCc1c(C(=O)N(C)C)nc2ccc(Cl)cn12,-11.4,-7.7,-5.5,2680,-5.0,5.4,-0.9
# (next part)
SMILES,PrP UTR inh,BJeLR lethal,ugtP null kill,Autofluor counter,Mtb hypoxia inh,Mtb hypoxia inh growth,RN4220 kill
O=C(NN=Cc1ccc(O)c(O)c1)NC12CC3CC(CC(C3)C1)C2,x,x,7.9,x,2.3,-0.6,0.9
Cc1ccc(C)c(Cn2nc(-c3cc(C)ccc3C)ccc2=O)c1,-1.5,-2.0,10.1,2913,-3.9,-10.1,-5.2
CC(Sc1cccc[n+]1[O-])C(=O)NC1CCCCC1C (stereo unspecified),-8.0,x,2.5,4192,3.4,-5.5,3.1
Nc1nnc(SCC(=O)Nc2ccc(F)c(Cl)c2)n1-c1ccccc1,-4.1,12.4,8.5,3756,x,x,6.8
O=c1oc2ccccc2cc1-c1ccccc1,-63.5,-2.2,4.5,1971,-0.3,-3.6,6.1
CNC(=O)c1cnc(-c2ccccc2)nc1-c1ccccc1,-22.9,-8.3,23.2,3151,16.9,8.5,5.0
O=C(NN=Cc1c(O)ccc2ccccc12)c1[nH]ncc1Br,x,x,49.7,x,-1.8,0.6,-2.9
COc1ccccc1NC(=O)C1CCN(C(=O)c2ccco2)CC1,-15.9,5.8,12.7,3368,11.1,-5.3,1.6
Cc1cccc2c1cnn2C(=O)CCC(=O)NCc1ccc(F)cc1,-10.5,-12.1,1.9,6119,x,x,-0.6
O=C1c2ccccc2C(=O)N1OCc1ccccc1,-26.2,2.9,4.5,9173,7.9,9.0,5.4

# 10 successive compounds from above, quoted:
SMILES,PrP UTR inh,BJeLR lethal,ugtP null kill,Autofluor counter,Mtb hypoxia inh,Mtb hypoxia inh growth,RN4220 kill
CCOC(=O)c1[nH]c(C)c(C(O)=C2C(=O)C(=O)N(CCN(C)C)C2c2ccncc2)c1C (stereo unspecified),x,x,-4.2,x,1.2,-9.0,3.7
CSc1nnc(CCCCCCCCc2nnc(SC)o2)o1,-1.5,-3.7,2.2,6590,17.2,18.7,4.5
Cc1nonc1OCCNCc1c(C(=O)N(C)C)nc2ccc(Cl)cn12,-11.4,-7.7,-5.5,2680,-5.0,5.4,-0.9
O=C(NN=Cc1ccc(O)c(O)c1)NC12CC3CC(CC(C3)C1)C2,x,x,7.9,x,2.3,-0.6,0.9
Cc1ccc(C)c(Cn2nc(-c3cc(C)ccc3C)ccc2=O)c1,-1.5,-2.0,10.1,2913,-3.9,-10.1,-5.2
CC(Sc1cccc[n+]1[O-])C(=O)NC1CCCCC1C (stereo unspecified),-8.0,x,2.5,4192,3.4,-5.5,3.1
Nc1nnc(SCC(=O)Nc2ccc(F)c(Cl)c2)n1-c1ccccc1,-4.1,12.4,8.5,3756,x,x,6.8
O=c1oc2ccccc2cc1-c1ccccc1,-63.5,-2.2,4.5,1971,-0.3,-3.6,6.1
CNC(=O)c1cnc(-c2ccccc2)nc1-c1ccccc1,-22.9,-8.3,23.2,3151,16.9,8.5,5.0
O=C(NN=Cc1c(O)ccc2ccccc12)c1[nH]ncc1Br,x,x,49.7,x,-1.8,0.6,-2.9

# Carrying on:
SMILES,PrP UTR inh,BJeLR lethal,ugtP null kill,Autofluor counter,Mtb hypoxia inh,Mtb hypoxia inh growth,RN4220 kill
CCOC(=O)N1CCN(C(=O)Cn2nc(C)c3sc4ccccc4c3c2=O)CC1,-22.1,-7.4,-17.6,2912,6.4,16.4,-7.5
Clc1ccc(C(c2ccccc2)N2CCN(c3ccccn3)CC2)cc1 (stereo unspecified),-7.0,2.3,18.8,5329,17.4,-3.1,-13.1
Cc1ccc(C(=O)N2CCN(c3ccccc3Cl)CC2)cc1[N+](=O)[O-],-28.2,-10.0,8.9,4786,10.1,8.5,2.7
O=C(NC1CCCC1)c1cccc(Oc2ccccc2)c1,-11.6,-6.0,1.2,2596,-0.3,-3.7,2.3
Cc1sc2ncn(CC(=O)N3CCCCC3)c(=O)c2c1C,-13.9,-1.4,2.1,2259,1.3,2.5,4.0
O=C(SCC(O)C(O)CS)c1cccs1 (stereo unspecified),-22.3,-17.4,1.5,3975,4.7,9.4,-1.1
Cc1cc(-c2ccc(C(C)C)c(S(=O)(=O)N3CCN(c4ccccn4)CC3)c2)on1,-21.7,1.1,13.2,5748,-5.1,-6.4,1.5
O=C(NCc1cccnc1)/C(=C/c1ccccc1)NC(=O)c1ccccc1,-15.2,-3.7,7.6,3885,5.5,6.3,0.7
c1cncc(-c2nc(N3CCCCCC3)c3ccccc3n2)c1,-5.1,-0.1,-12.5,3423,0.6,5.2,-6.1
O=C(COC(=O)/C=C/c1cccc([N+](=O)[O-])c1)NCCCN1CCCC1=O,-35.0,6.0,-11.5,4557,0.1,7.2,1.6
COc1ccc2oc3ccc(OC)cc3c(=O)c2c1,-102.7,5.4,3.0,9212,10.5,7.8,6.2
